# D2 PAM: human D2 receptor positive allosteric modulation; P14416; DiscoveRx D2 beta-arrestin cells, luminescence, 90 min; 100% = 57 uM dopamine signal; potentiation, % (no concentration beside the values); 0.23% of 360,000 active; active = potentiation of 50% or more; inconclusive = 30% to 50%; inactive = 30% or less;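 note: compound concentration not given in the record; tested on top of an EC20 dose of dopamine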
# Target sequence (P14416 whole entry, looked up): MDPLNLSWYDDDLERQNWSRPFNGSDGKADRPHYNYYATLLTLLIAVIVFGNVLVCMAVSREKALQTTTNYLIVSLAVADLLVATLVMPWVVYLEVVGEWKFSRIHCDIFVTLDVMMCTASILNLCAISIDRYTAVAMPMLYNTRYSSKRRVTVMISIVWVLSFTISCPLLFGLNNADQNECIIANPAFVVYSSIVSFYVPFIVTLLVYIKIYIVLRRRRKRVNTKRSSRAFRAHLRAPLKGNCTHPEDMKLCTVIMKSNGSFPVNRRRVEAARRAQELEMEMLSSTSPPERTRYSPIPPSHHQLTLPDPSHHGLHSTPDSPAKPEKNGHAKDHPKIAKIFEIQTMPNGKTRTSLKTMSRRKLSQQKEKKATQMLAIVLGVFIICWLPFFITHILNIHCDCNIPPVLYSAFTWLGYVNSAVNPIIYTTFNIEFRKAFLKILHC
#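 D2 cells co-treated with compound plus 50 nM dopamine (EC20) for 90 min at 37 deg C to detect potentiation. Beta-arrestin recruitment was read as enzyme-fragment luminescence after 1 h at ambient temperature. Full response was set by 57 uM dopamine.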
# CtBP-E1A inh: blocks the CtBP interaction with E1A; AlphaScreen GST-E1A/His-CtBP binding, 1536-well; stronger effect = lower value; control for the full effect not named in the record; activity change, % (concentration not given with the values); 0.49% of 340,000 active; in the data active means activity change below about -65%; inconclusive means about -30% to -65%; inactive means above about -30%; note: % is set by controls: 0 for no effect and ±100 for the full control effect
#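 Steps: dispense buffer (Tris pH 8.0, NaCl 300 mM, TCEP 1 mM, BSA, Tween 20); add 5X protein mix (GST-E1A, His-CtBP, 125 nM each); pin 23 nL compound; 2 h at 37 °C, dark; add 5X beads (50 ug/mL); 1 h; read.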
# TRPML1 ag: human mucolipin-1 channel agonism; activation, % (no concentration beside the values); TRPML1-expressing cells, Ca2+ dye fluorescence, FDSS; host cell line not named in the record; reference of the full effect not given here; Q9GZU1; 0.12% of 410,000 active; in the data active = activation above about 50%; inconclusive = about 30% to 50%; inactive = below about 30%; note: 0% is about no effect; the text of the record puts the active cut at 80%
# Target sequence (Q9GZU1 whole entry, looked up): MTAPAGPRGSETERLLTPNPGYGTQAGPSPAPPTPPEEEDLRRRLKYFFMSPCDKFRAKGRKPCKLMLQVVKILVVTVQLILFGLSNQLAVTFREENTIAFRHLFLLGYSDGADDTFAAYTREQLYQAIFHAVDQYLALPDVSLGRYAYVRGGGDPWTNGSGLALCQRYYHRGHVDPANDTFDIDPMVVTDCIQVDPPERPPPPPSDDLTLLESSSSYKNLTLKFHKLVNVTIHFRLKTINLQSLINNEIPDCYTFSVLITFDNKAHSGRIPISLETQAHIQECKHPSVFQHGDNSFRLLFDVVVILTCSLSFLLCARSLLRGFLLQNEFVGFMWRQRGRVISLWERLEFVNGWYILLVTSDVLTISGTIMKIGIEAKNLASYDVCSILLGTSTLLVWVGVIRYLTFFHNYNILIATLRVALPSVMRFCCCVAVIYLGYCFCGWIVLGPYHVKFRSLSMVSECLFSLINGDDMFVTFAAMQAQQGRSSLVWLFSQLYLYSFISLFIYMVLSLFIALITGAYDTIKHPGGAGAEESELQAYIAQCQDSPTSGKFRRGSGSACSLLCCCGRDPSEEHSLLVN
#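 Kinetic FDSS Ca2+ read in Tet-induced TRPML1-DL cells (ABD Ca8 dye plus quencher, 45-90 min RT loading): baseline, then compound, then 110 s agonist window; EC80 agonist 54-4 at 4uM final added afterwards for a 110 s antagonist window.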
# TRPV1 PAM: enhances activation of the human vanilloid receptor TRPV1 | Q8NER1 | TRPV1-expressing cells, Fluo-8 calcium influx, capsaicin EC20 potentiation; host cell line not named in the record; control for the full effect not named in the record | AID 540277 | potentiation, % at 8.33 µM | 0.02% of 320,000 active; active means potentiation above 80%; inconclusive means 30% to 80%; inactive means below 30%; note: 0% is about no effect
#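 TRPV1-expressing cells were cultured overnight at 35.5C and loaded with Fluo-8 calcium dye for 40 to 90 min at room temperature. After a 10 s baseline, compound was added and calcium influx was read kinetically for 3 min (ex 480/em 520 nm).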
# Six1-Eya2 blk: blocks human Six1 binding to Eya2 | activity change, % (test concentration not listed) | AlphaScreen GST-Six1/His-Eya2 binding, biochemical; stronger effect = lower value; control for the full effect not named in the record | 0.56% of 360,000 active | Q15475+O00167; in the data active = activity change below about -65%; inconclusive = about -30% to -65%; inactive = above about -30%; note: % is set by controls: 0 for no effect and ±100 for the full control effect; compound concentration not given in the record
#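 AlphaScreen luminescence read after one hour at 37 °C in darkness. Pin-transferred compounds met GST-Six1 and His-Eya2 protein (5X stock 250 nM/500 nM) plus glutathione donor and Ni-chelate acceptor beads (5X, 50 ug/mL).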
# TRPML1 inh: inhibitors of human TRPML1 channel; Q9GZU1; AID 624415; 0.02% of 390,000 active; TRPML1-inducible cells, Ca2+ dye fluorescence, FDSS; stronger effect = lower value; inhibition of EC80 agonist-evoked calcium signal; activity change, negative = inhibition, % (concentration not given with the values); in the data active means activity change below about -50%; inconclusive means about -30% to -50%; inactive means above about -30%;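 note: stimulus is agonist 54-4 at its EC80 concentration; % is set by controls: 0 for no effect and ±100 for the full control effect; compound concentration not given in the record; the text of the record puts the active cut at -80%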
#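 Calcium fluorescence in TRPML1-DL cells induced overnight with Tet: a 110 s read after compound pin addition, then a 110 s antagonist read after challenge with 54-4 at 4 uM final (EC80).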
# * hit, by the source's call; ? = inconclusive; / = no result given; & = joins results of further samples.
SMILES,D2 PAM,CtBP-E1A inh,TRPML1 ag,TRPV1 PAM,Six1-Eya2 blk,TRPML1 inh
COCCn1c(C(=O)N(C)C)cc2c1C[C@H]1CN(C(=O)c3ccccc3)[C@@](Cc3ccc(F)cc3)(C(=O)OC)[C@@H]21,/,-1,0.6,/,-8,/
CC(C)c1ccc(C(O)P(=O)(OCc2ccccc2)c2ccc(N(C)C)cc2)cc1 (configuration not stated),-15,0,4.3,2,-5,16
CCCCn1c(SCC(=O)Nc2nnc(CC)s2)nc2ccccc2c1=O,-5,1,-0.7,3,4,5
COc1ccc(C(=O)NC2CCC(O)CC2)cc1S(=O)(=O)NCc1ccc(Cl)cc1 (configuration not stated),-4,-23,0.8,-1,8,-11
Cc1c(Cl)cccc1NC(=O)c1nc(C)n(-c2cc(OC(C)C)c(Cl)cc2Cl)n1,-9,-5,0.6,-9,0,58
Cc1cc(C)cc(COc2ccc3c(C)c(CC(=O)O)c(=O)oc3c2C)c1,5,-21,-0.8,?,-5,1
CCC(=O)N1CCc2cc(S(=O)(=O)N(C)c3ccc(Br)cc3)ccc21,-3,-4,0.9,-2,-1,3
O=C1NC[C@H](Cc2ccccc2)N(CC2CCN(CCC34CC5CC(CC(C5)C3)C4)CC2)C1=O,-17,-5,-0.3,/,-5,-12
Cc1cccc(C)c1NC(=O)CSc1nnc(-c2ccncc2)n1Cc1ccco1,-6,1,0.1,-9,2,1
C[C@H](CO)N1C[C@H](C)[C@@H](CN(C)Cc2ccc(O)cc2)OCc2cnnn2CCCC1=O,-1,-18,0.5,/,5,-1
O=C(NCCS(=O)(=O)N1CCN(c2cccc(Cl)c2)CC1)C1CCCC1,-21,-3,-0.5,-9,8,0
C[C@H]1CN([C@@H](C)CO)C(=O)c2cc(-c3cccc(F)c3)cnc2O[C@@H]1CN(C)S(C)(=O)=O,7,5,0.0,/,-3,-3
COC(=O)c1ccc(NC(=O)c2ccccc2-c2ccccc2C(=O)O)cc1,-6,/,0.3,5,-1,-5
Cc1nc2cc(NC(=O)c3cccc(S(C)(=O)=O)c3)ccc2o1,-6,19,0.0,-3,-1,5
Cc1cc2nc(=O)c(/C=C3\C=Nc4ccccc43)c(N)n2o1,-20,/,0.5,-28,-2,-6
O=C(Nc1ccc(Oc2ccccc2)cc1)C1CCCN(c2ncccn2)C1 (configuration not stated),11,-12,10,4,3,-14
CC(C)(C)[C@@H]1C=C(C(=O)NC2CC2)O[C@H](OCc2ccc(CO)cc2)C1,-4,2,-0.7,12,-3,11
COc1cccc(N2CCN(Cc3nc4scc(-c5ccccc5)c4c(=O)[nH]3)CC2)c1,-16,-19,1.1,5,-29,-18
Cc1cccc(C(=O)Nc2onc(C)c2C#N)c1,-7,-1,-1.0,7,6,-1
O=C(O)c1cccnc1C(=O)O,-17,-26,/,-14,?,/
Cc1ccc(Cl)cc1NC(=O)Cn1c(C)csc1=O,-1,/,-0.7,23,3,-7
C[C@@H](CN=[N+]=[N-])CN1CC[C@H](NC(=O)OCc2ccccc2)CCC1=O,-11,0,-0.7&-0.5,-20,2,4
COc1ccc(S(=O)(=O)N2CCOCC2)c2ccccc12,0,/,/,-9,-3,/
NCCC(=O)NC[C@H]1O[C@@H](n2cnc3c(N)ncnc32)[C@H](O)[C@@H]1O,-3,5,-0.5,/,4,3
COc1ccc(C2/C(=C(/O)c3ccccc3)C(=O)C(=O)N2CO)cc1 (configuration not stated),-5,4,1.3,12,9,16
SMILES,D2 PAM,CtBP-E1A inh,TRPML1 ag,TRPV1 PAM,Six1-Eya2 blk,TRPML1 inh
COc1cc(Cl)c(C)cc1NC(=O)CSc1nnc(-c2ccco2)n1CC(C)C,-10,-16,3.9,?,-7,6
CCOc1cc(CN2CCCC(CO)(Cc3ccc(F)cc3F)C2)ccc1OC (configuration not stated),-3,0,0.8,-13,2,?
O=C1NCCN/C1=C\C(=O)c1ccc(F)cc1,-21,/,-0.5,0,-2,-3
Cc1cc2cc(CCNC(=O)CC(C)(C)C)c(=O)[nH]c2cc1C,-4,-4,-1.0,7,-10,12
Cc1ccc2nc(Cl)cc(=O)n2c1,-8,24,0.3,/,3,-4
Cc1cccc(CN2CCN(C3CN(Cc4cn(Cc5cccc(C(F)(F)F)c5)nn4)S(=O)(=O)C3)CC2)c1 (configuration not stated),/,-2,-1.1,/,-1,/
CC(=O)c1cccc(NC(=O)CCc2nnc3ccc(NCc4ccc5c(c4)OCO5)nn23)c1,-4,1,-0.2,2,1,-11
Cc1nn(-c2ccccc2)c2sc(C(=O)O)cc12,-5,-8,-0.6,14,-17,-3
Cc1nnc(SCC(=O)Nc2nccs2)n1C(C)C,12,6,-0.7,19,2,-14
COc1cccc(/C=C/C(=O)OCC(=O)NC2CC2)c1OC,1,4,0.2,/,0,2
COc1ccc(-n2cc(-c3ccc(OC(F)F)cc3)[n+]3c2CCCCC3)cc1,-5,16,0.8,12,7,-9
O=c1cc(-c2ccccc2)oc2ccc(O)cc12,-11,/,1.5,-9,-8,11
C#CCOc1ccc(CNC[C@H]2O[C@@H](n3ccc(=O)[nH]c3=O)[C@H](O)[C@@H]2O)cc1,-2,6,-0.3,/,-6,8
COc1cc(OC)cc(C(=O)NC2CC3CCC(C2)N3Cc2ccco2)c1 (configuration not stated),-37,-5,0.6,1,4,-3
c1coc(-c2nc3c([nH]2)CCc2nonc2-3)c1,1,5,0.4,-1,1,-11
CCOC(=O)C1(Cc2ccccc2Cl)CCN(Cc2csc(C(C)=O)c2)CC1,-12,1,0.9,-5,-12,33
C/C(=N/NC(=O)c1ccc(Br)s1)c1cccnc1,-12,-2,0.8,-13,0,-19
CCCCn1cnc2cc(NCc3ccncc3)ccc21,-8,6,0.8,-16,0,-23
CCNc1ccc(C(=O)OCC)cc1NC(=O)c1cccc(S(=O)(=O)N(C)c2ccccc2)c1,-19,-11,0.0,5,-1,8
O=c1oc2ccccc2cc1-c1csc(NN=C2CCCC2)n1,-7,22,0.6,-11,21,12
Cc1nc(N)nc(N/N=C/c2c(F)cccc2Cl)n1,-5,1,-1.2,-8,-1,15
COCC(=O)Nc1cc(C(=O)Nc2ccccc2C)ccc1Cl,-6,4,0.1,-28,2,1
CC(C)(C)NC(=O)C(c1ccccc1)N(C(=O)c1ccco1)C1CC1 (configuration not stated),-3,9,0.8,-4,-1,-24
CCCCN(CC)C(=O)c1cccc(Cl)c1,-7,8,-0.8,1,4,8
COP(=O)(OC)c1nc(-c2ccc(C)cc2)oc1N1CCCCC1,-17,/,0.1,6,0,13
SMILES,D2 PAM,CtBP-E1A inh,TRPML1 ag,TRPV1 PAM,Six1-Eya2 blk,TRPML1 inh
CC(=O)c1ccc2c(c1)OCCOCCOc1ccc(C(C)=O)cc1OCCOCCO2,7,/,2.7,2,1,45
CC(=O)N(c1ccccc1Cl)S(=O)(=O)c1ccc(Cl)cc1,-4,-5,-2.0,-6,1,-25
COc1ccccc1CNC(=O)COc1ccc(C)cc1,1,5,0.1,-12,2,-7
COc1ccccc1N1CC(C(=O)Nc2nnc(SC)s2)CC1=O (configuration not stated),-8,0,1.5,6,6,-11
COc1ccccc1-n1c(C)c(C(C)=O)c2cc(O)ccc21,-4,-3,0.8,2,-4,27
CC(NS(=O)(=O)c1ccc(OCC(=O)NCc2ccccn2)cc1)c1ccccc1 (configuration not stated),-2,0,1.8,-1,1,-6
CCOC(=O)N1CCN(C(=O)C2CCCN(c3nc4ccc(OCC)cc4s3)C2)CC1 (configuration not stated),-12,-4,-0.6,-20,-4,7
Cc1nc(C)c(-c2nnc(-c3cccc(S(=O)(=O)N(C)C)c3)o2)cc1C(=O)NN,-5,/,-0.6,25,-7,32
O=C(COc1ccccc1)N1c2ccccc2Sc2ccccc21,-7,12,0.6,-12,1,12
CC(=O)Nc1cccc(NC(=O)Nc2cccc(F)c2)c1,-7,/,1.3,8,-1,8
Cc1cc(=O)[nH]c(SCC(=O)N2CCN(C(=O)c3ccco3)CC2)n1,11,-1,-0.4,/,-2,22
NC(=O)N/N=C/c1ccc(-c2cccc(C(F)(F)F)c2)o1,-3,-1,2.1,-9,-4,12
Cc1cc(=O)oc2c(C)c(OCC(=O)NC3CC(C)(C)NC(C)(C)C3)ccc12,-3,9,-0.2,6,5,2
CCCC(=O)OCC(=O)Nc1cc(C(C)(C)C)nn1-c1ccccc1,1,1,0.5,-5,7,-15
COc1ccc(Cl)cc1C1=NOC2(CCC2)C(=O)N1Cc1ccc(NC(C)=O)cc1,-3,-1,0.3,/,3,/
CC(=O)Nc1ccc(-c2csc(NNC(=O)c3ccccc3)n2)cc1,-9,/,2.0,16,23,-8
COc1ccccc1NS(=O)(=O)c1ccc(N/N=C/c2c(C)nn(-c3ccccc3)c2N2CCCC2)c([N+](=O)[O-])c1,-10,?,-0.4,-5,?,3
O=C(NNc1ccccc1[N+](=O)[O-])Nc1ccc(Cl)c(Cl)c1,-2,-3,-2.0,-7,?,9
CC(C)(C)n1nnnc1C(c1cccnc1)N(Cc1ccccc1)Cc1ccco1 (configuration not stated),11,-22,2.4,-14,-2,28
Cc1ccc(-c2nn3c(C)nnc3s2)cc1NCc1c(F)cccc1Cl,2,0,2.2,0,1,-3
COC(=O)[C@]12CCCCC=C1N(Cc1ccco1)C(=O)[C@H](CC(=O)NCc1ccc(OC)c(OC)c1)C2,/,1,-0.5,/,2,/
CC(=O)c1ccc(S(=O)(=O)N2CCN(C(=O)c3cccc(S(=O)(=O)N4CC(C)OC(C)C4)c3)CC2)cc1 (configuration not stated),1,1,-0.2,/,3,-9
Cn1c(=O)c2c(nc(N3CCOCC3)n2Cc2c(F)cccc2Cl)n(C)c1=O,-1,0,-0.4,-2,3,18
O=C(CN1C(=O)NC2(CCCCCC2)C1=O)Nc1ccc(S(=O)(=O)N2CCOCC2)cc1,-1,4,-0.7,-10,-4,-9
CC(C)OC(=O)N(C)C[C@@H]1OCc2cn(nn2)CCCC(=O)N([C@@H](C)CO)C[C@H]1C,6,7,-0.5,/,0,8
O=C(O)CCCn1cc(NC(=O)c2ccc(Br)o2)cn1,0,/,-0.3,5,-1,45
OC1(c2ccccc2F)CCN(Cc2nnnn2Cc2ccc(F)cc2)CC1,-11,-1,0.9,20,-2,8
CCOC(=O)C1CCN(C(=O)CCS(=O)(=O)c2ccc3c(c2)CCN3C(C)=O)CC1,11,-11,2.7,7,7,-7
COc1ccc([C@@H]2[C@@H]3C(=O)N(C(C)(C)C)C(=O)[C@@H]3[C@]3(Cc4ccccc4)C(=O)N(c4ccccc4)C(=O)N23)cc1,-13,0,-0.5,15,-1,4
O=C1Cc2cc(S(=O)(=O)Nc3cccc([N+](=O)[O-])c3)cc3c2N1CCC3,-13,-5,-0.7,10,4,-3

# Some of the entries above in a different format.
Cn1c(=O)c2c(nc(N3CCOCC3)n2Cc2c(F)cccc2Cl)n(C)c1=O
  D2 PAM = -1 | CtBP-E1A inh = 0 | TRPML1 ag = -0.4 | TRPV1 PAM = -2 | Six1-Eya2 blk = 3 | TRPML1 inh = 18
O=C(CN1C(=O)NC2(CCCCCC2)C1=O)Nc1ccc(S(=O)(=O)N2CCOCC2)cc1
  D2 PAM = -1 | CtBP-E1A inh = 4 | TRPML1 ag = -0.7 | TRPV1 PAM = -10 | Six1-Eya2 blk = -4 | TRPML1 inh = -9
CC(C)OC(=O)N(C)C[C@@H]1OCc2cn(nn2)CCCC(=O)N([C@@H](C)CO)C[C@H]1C
  D2 PAM = 6 | CtBP-E1A inh = 7 | TRPML1 ag = -0.5 | TRPV1 PAM = / | Six1-Eya2 blk = 0 | TRPML1 inh = 8
